High-throughput results deposited in PubChem BioAssay by ICCB-Longwood Screening Facility, Harvard Medical School.
MgrA DNA FP – S. aureus MgrA activity modulators, primary screen, biochemical, S. aureus Newman, fluorescence polarization; AID 602314, 2012; 84,000 tested, 0.13% active; MgrA-DNA binding; inhibition, %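 (about 10 µg/mL by stock and volumes)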;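 active = above 50% in either of two replicates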;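 note: 0% = protein plus DNA without compound and 100% = DNA alone without protein; higher means less MgrA bound to DNA so lower polarization; one replicate is shown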
S aureus helic – inhibitors of S. aureus replicative helicase, primary screen, biochemical, fluorescence unwinding readout; replicative DNA helicase (DnaC/DnaB), Staphylococcus aureus; purified S. aureus helicase, fluorescence unwinding assay; about half of the hits fall short of the stated cut; inhibition, %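 (tested at about 80 µM)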; 120,000 tested, 0.05% active; AID 485395, 2010;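 active = both duplicates at 50% or more, or one of them with a favoured structure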;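 note: 0% = mean of negative control wells and 100% = mean of positive control wells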
* = called active by the depositor; · = no result given; & = joins results of further samples.

MgrA DNA FP,S aureus helic,Compound
·,-17,O=C(O)/C=C/c1cccc(NS(=O)(=O)c2cccc3cccnc23)c1
·,-10,COc1ccc(S(=O)(=O)Nc2ccccc2C(=O)NC(C)C)cc1OC
·,0,COc1ccc(N2CCN(c3ccc(NC(=O)C4CCCCC4)cc3C#N)CC2)cc1
-0.7,·,COc1ccc(C2=NN(C(=O)c3cc([N+](=O)[O-])cc([N+](=O)[O-])c3)C(c3ccc(Br)cc3)C2)cc1 (centres undefined)
-1.6,11,CCS(=O)(=O)N1CCCC(C(=O)NCCc2ccccc2)C1 (centres undefined)
27,·,COC1=CC(=O)C(C)=CC1=O
-2.8,6,Oc1ccccc1-c1cc(-c2ccccc2)n[nH]1
·,-29,O=C(c1cn[nH]c1C1CCNCC1)N1CCC(c2ccccc2)C1 (centres undefined)
1.1,·,CC(C)(C)SC(=O)c1cccnc1SCCS(=O)(=O)c1ccccc1
·,-15,COc1cccc(C(=O)OC(C)C(=O)Nc2ccc(N(C)C)cc2)c1 (centres undefined)
-0.8,·,COc1ccc(C2CC(=O)C3=C(C2)Nc2ccccc2NC3c2ccc3c(c2)OCO3)cc1OC (centres undefined)
0.8,0,O=C(O)CSc1nc2ccccc2o1
·,-19,CC(OC(=O)c1cccc(N(C)C)c1)C(=O)N1CCc2ccccc21 (centres undefined)
-0.2,-36,COc1ccccc1-c1cc2ccccc2oc1=O
·,-4,O=C(Nc1sc2c(c1Sc1nnnn1-c1ccccc1)CCCC2)c1ccccc1
1.4,·,O=C(Nc1ccc(Cl)cc1)N1CCC(C(c2ccccc2)c2ccccc2)CC1
-7.0,-5,CC1Oc2ccccc2N(CC(=O)Nc2ccccc2F)C1=O (centres undefined)
2.9,·,Cc1cc(C)n(-c2nc3nonc3nc2-n2nc(C)cc2C)n1
·,17,CCN(C(=O)c1c(-c2c(Cl)cccc2Cl)noc1C)c1ccccc1C
-1.3,·,CCOC(=O)C1=C(C)N=c2s/c(=C\c3cc(Br)c(OC)c(OC)c3)c(=O)n2C1c1ccc2c(c1)OCO2 (centres undefined)
·,2,COC(=O)c1oc2ccc(OC)cc2c1NC(=O)CCCN1C(=O)c2ccccc2C1=O
-4.4,3,Cc1oc(-c2ccc(C(=O)NCCN3CCCC3)cc2)nc1CSc1ccc(Cl)cc1
·,-4,COc1ccc(C(C)N)cc1Br (centres undefined)
·,-16,COc1ccc(S(=O)(=O)NCCSCc2cccs2)cc1
·,-22,Nc1nc2ccccc2[nH]1
1.9,3,COC(CNC(=O)c1cc(S(=O)(=O)N2CC(C)CC(C)C2)ccc1F)OC (centres undefined)
-2.2,3,N#C/C(=C\c1cn(CCC(N)=O)c2ccccc12)Sc1nc2ccccc2s1
·,-92,O=C(c1ccc2nc(/C=C(\O)c3ccc(Cl)cc3)c(=O)[nH]c2c1)N1CCOCC1
-0.1,-7,CN(CC(=O)N1CCc2ccccc21)S(=O)(=O)c1ccc2nc(-c3ccccc3)[nH]c2c1
·,2,O=C(c1ccc2cn[nH]c2c1)N1CCCC1
0.9,·,CN(C)c1ccc(-c2nc3cc(NC(=O)c4ccc(Cl)c([N+](=O)[O-])c4)ccc3o2)cc1
·,9,O=C(O)CC(Cn1cnnn1)c1ccccc1 (centres undefined)
·,1,CCCOc1ccc(NC(=O)CC2C(=O)N(CC)C(=S)N2CCNC(C)=O)cc1 (centres undefined)
·,-21,Cc1noc2ncnc(N(C)CCO)c12
-0.6,-3,Nn1c(SCc2ccc(F)c3ccccc23)nc2ccccc2c1=O
·,-24,COC(=O)c1c(-c2ccccc2)csc1NC(=O)CCN1CC(C)OC(C)C1 (centres undefined)
2.5,16,OC(c1ccccc1)c1nc2ccccc2n1-c1ccccc1 (centres undefined)
·,5,CCOc1ccc(N(C)Cc2cc(=O)oc3ccc(OCC)cc23)cc1
·,19,Cc1ccc(Sc2c(N)n(C)c(=O)[nH]c2=O)cc1
0.6&6.5&-0.5,·,Cc1ncc([N+](=O)[O-])n1CCO
1.8,2,O=C(Nc1ccccc1)Nc1ccc(F)cc1
-1.3,·,CS(=O)c1ccc(Oc2cccc(F)c2C#N)cc1 (centres undefined)
·,8,Cc1nn(CCO)c(N)c1C1(O)C(=O)N(C)c2ccccc21 (centres undefined)
·,-24,N#CCSc1nnc(-c2cccs2)n1-c1ccccc1
1.1,0,O=C(O)CC(C(=O)O)c1cn(Cc2ccccc2)c2ccccc12 (centres undefined)
·,-20,N#C/C(=C/Nc1cccc2ccccc12)c1nc(-c2ccccc2)cs1
-2.6,·,O=c1[nH]c2ccccc2c(O)c1Cc1ccccc1
5.0,20,CCN(C(=O)COc1ccc(Cl)cc1)C1CCCCC1
12,11,NC(=O)COc1ccc(C=C2C(=O)c3ccccc3C2=O)cc1
·,-7,C/C(=N\N=C(N)N)c1ccc(Cl)cc1
·,5,O=C(Cn1ncc2c3ccccc3n(Cc3ccccc3)c2c1=O)N1CCCCC1
-9.7,12,O=S(=O)(c1ccccc1)c1nnn2c1nc(Cl)c1ccccc12
·,-21,CCCn1c2ccccc2c2cnn(CC(=O)NC3CCN(Cc4ccccc4)CC3)c(=O)c21
3.0,2,Cc1n[nH]c(=S)n(/N=C/C=C/c2ccccc2)c1=O
1.2,-3,CN(C)c1nc(Cl)nc(N(C#N)CN2C(=O)c3ccccc3C2=O)n1
·,11,O=C(O)Cc1nc(-c2ccncc2)n[nH]1
3.1,·,CCOC(=O)C1=C(C)N=c2s/c(=C\c3ccc(O)c(OCC)c3)c(=O)n2C1c1ccc(OC)cc1OC (centres undefined)
2.0,1,Cc1cc(NC(=O)Cc2cccc3ccccc23)n[nH]1
-2.1,·,Nc1cccc(-c2cnco2)c1
1.1,·,COC(=O)CN1C(=O)Cc2ccccc2C1=O

Later entries.
MgrA DNA FP,S aureus helic,Compound
·,5,COc1ccc(CN2C(=O)c3ccccc3C2=O)cc1C(=O)OCc1nnc(-c2ccccc2)o1
·,-5,CC1CCCC(C)N1NC(=O)Cc1ccccc1 (centres undefined)
·,-3,S=C(NCc1ccccc1)N/N=C/c1ccccn1
-1.5,0,CC(C)(C)c1ccc(C(=O)n2cc(Cl)cn2)cc1
·,0,CC(C)C(=O)Nc1sc2c(c1C(=O)OCc1nnc3n(C)c(=O)c4ccccc4n13)CCC2
5.4,15,CCN(CC)S(=O)(=O)c1ccc(C(=O)N2CCN=C2SC)cc1
·,-12,Nc1cccc(CCc2cccnc2)c1
1.1,·,Cc1c(CN2CCCC(C)C2)c(=O)n(-c2ccccc2)n1C (centres undefined)
-1.2,·,N#Cc1c(F)cccc1NCCc1ccc(Cl)cc1
0.1,12,Cc1ccc(S(=O)(=O)NC2c3ccccc3Oc3ccccc32)cc1
·,-4,C=CCNC(=O)c1cc(C)nc2ccccc12
0.2,·,Cc1ccc(C(=O)N=C(N)c2cccs2)cc1
-0.3,·,Cn1cnc(S(=O)(=O)N=S(C)(=O)c2ccc(Cl)cc2)c1 (centres undefined)
-2.4,·,CC(=O)Nc1nc(C)c(CCC(C)C)c(=O)[nH]1
-0.8,·,O=C(NC1CCN(C(=O)c2c(Cl)cccc2Cl)CC1)c1ccccc1

Some of the entries so far, bar-delimited.
structure | MgrA DNA FP | S aureus helic
N#Cc1c(F)cccc1NCCc1ccc(Cl)cc1 | -1.2 | ·
Cc1ccc(S(=O)(=O)NC2c3ccccc3Oc3ccccc32)cc1 | 0.1 | 12
C=CCNC(=O)c1cc(C)nc2ccccc12 | · | -4
Cc1ccc(C(=O)N=C(N)c2cccs2)cc1 | 0.2 | ·
Cn1cnc(S(=O)(=O)N=S(C)(=O)c2ccc(Cl)cc2)c1 (centres undefined) | -0.3 | ·
CC(=O)Nc1nc(C)c(CCC(C)C)c(=O)[nH]1 | -2.4 | ·

Reformatted with values under each structure: entries from further up.
The line under a structure holds: MgrA DNA FP, S aureus helic
CC1CCCC(C)N1NC(=O)Cc1ccccc1 (centres undefined)
    ·, -5
S=C(NCc1ccccc1)N/N=C/c1ccccn1
    ·, -3

Next section
MgrA DNA FP,S aureus helic,Compound
-7.5,-69,CN(C)c1ccc(/C=C/C(=O)/C=C/c2ccco2)cc1
-2.8,·,Cc1ccc(Cc2nn3c(C(=O)c4cccs4)nn(-c4ccc(Cl)cc4)c3nc2=O)cc1
·,17,CC1SCC(NC(=O)c2ccc(Cl)cc2)CS1 (centres undefined)
4.7,9,Cc1ccc(C(=O)OC2=C(c3ccccc3)C(=O)c3ccccc3C2=O)cc1
·,18,O=S(=O)(NCC(c1ccco1)S(=O)(=O)c1ccccc1)c1ccccc1 (centres undefined)
0.2,3,COc1ccc(NC(=O)OCC(C)C)cc1OC
-1.7,2,O=C1c2ccccc2C(=O)N1CSC1=NCCS1
·,-8,Cc1ccc(/C=C/C(=O)NCCc2c[nH]c3ccccc23)o1
·,-40,CCC(=O)Nc1cc(C(=O)NCC2CCCN2CC)c(OC)cc1N(C)C (centres undefined)
-2.4,1,CN(C)CCSc1nc2ccccc2[nH]1
·,-39,C=CCNC(=O)c1ccc(Cl)c(Cl)c1
4.1,·,O=C1OCc2ccc([N+](=O)[O-])cc21
-1.6,-7,CC(C)COC(=O)Cc1c(O)c2ccccc2[nH]c1=O
-0.8,18,Nn1c(Cn2ccnc2)nnc1Cn1ccnc1
0.3,·,Cc1cc(C)cc(N2C(=O)CS(=O)(=O)C2c2cccc([N+](=O)[O-])c2)c1 (centres undefined)
·,11,CCc1c(C)sc(NC(=O)c2cc(C)on2)c1C#N
-0.2,9,CC1CC(C)CN(S(=O)(=O)c2ccc(-n3cccn3)cc2)C1 (centres undefined)
·,4,O=C(Nc1ncnc2sccc12)c1cccs1
0.5,16,CC(OC(=O)C(C)N1C(=O)c2ccccc2C1=O)C(=O)c1ccccc1 (centres undefined)
·,26,CC1N(C)c2cc(CN3C(=O)c4ccccc4C3=O)ccc2C1(C)C (centres undefined)
-0.3,·,CC(C)(C)c1ccc(Oc2ccc(NC(=O)Cc3cccs3)cn2)cc1
-1.7,·,N#Cc1cccc(CSc2nccc(=O)[nH]2)c1
4.2,7,O=C(c1ccccc1)N(c1ccc2oc3c(c2c1)CCCC3)S(=O)(=O)c1ccccc1
·,-12,O=C(CSc1nc2c(c(=O)n1-c1ccccc1)SCC2)Nc1nccs1
0.1,-10,CNC(=O)Cn1ncc2c3ccccc3n(Cc3cc(C)ccc3C)c2c1=O
-1.9,-3,CN(C)C(=O)c1ccccc1NC(=O)Nc1ccccc1
·,5,O=C(Nc1nccs1)c1ccc2c(=O)n3c(nc2c1)CCCCC3
0.8,4,CCOc1ccc(-n2c(-c3ccccc3)c[n+]3c2CCC3)cc1
·,12,Cn1ccnc1SC(C(=O)Nc1ccccc1)C(=O)Nc1ccccc1
·,-5,CC1Cc2cc(C(=O)COC(=O)c3n[nH]c(=O)c4ccccc34)ccc2N1S(C)(=O)=O (centres undefined)
·,3,O=C(c1ccc2c(c1)N(Cc1ccccc1)C(=O)c1ccccc1S2=O)N1CCOCC1 (centres undefined)
0.1,·,CN(C)c1nc(N(C)C)n(-c2ccccc2)n1
-2.1,·,C=CCNC(=S)N1CCc2sccc2C1c1ccc(OC)cc1 (centres undefined)
·,10,Clc1cccc(N2CCN(CCNc3nc4ccccc4n4cnnc34)CC2)c1
·,7,CCc1nn(CC(=O)NCCc2ccccc2)c(=O)c2cc3sccc3n12
·,-18,CCOC(=O)c1c(-c2ccccc2)csc1NC(=O)CCCC(=O)O
-2.6,14,O=C(COC(=O)c1cnccn1)c1ccc2c(c1)CCCC2
·,-26,CCCc1cc(=O)[nH]c(SC/C(O)=C(\C#N)c2nc3ccccc3[nH]2)n1
·,-3,CC(OC(=O)Cc1coc2cc3c(cc12)CCC3)C(=O)NCc1ccc2c(c1)OCO2 (centres undefined)
12,1,CSC1=NC2(CC(c3cccs3)c3ccc(O)c(O)c3O2)CC(C)(C)N1 (centres undefined)
·,12,CC1CCN(Cc2c(O)ccc3ccccc23)CC1
0.8,-10,CN(C)c1ccc(CNCCC2(c3ccccc3)CCOC(C)(C)C2)cc1 (centres undefined)
-0.4,-3,COc1ccc(OCC(=O)Nc2ccc(N3CCN(S(C)(=O)=O)CC3)cc2)cc1
-8.6,6,O=C(NCCNC1CCCCC1)c1cccs1
-5.0,-5,O=C(NC1CCCC1)C(c1ccccc1)N(Cc1ccccc1F)C(=O)c1ccco1 (centres undefined)

Ordered by the number under S aureus helic (low to high): 3 from the list above.
smiles,S aureus helic
CCCc1cc(=O)[nH]c(SC/C(O)=C(\C#N)c2nc3ccccc3[nH]2)n1,-26
CCOC(=O)c1c(-c2ccccc2)csc1NC(=O)CCCC(=O)O,-18
Clc1cccc(N2CCN(CCNc3nc4ccccc4n4cnnc34)CC2)c1,10

Back to the main list, repeating the 2 entries before the break.
MgrA DNA FP,S aureus helic,Compound
-8.6,6,O=C(NCCNC1CCCCC1)c1cccs1
-5.0,-5,O=C(NC1CCCC1)C(c1ccccc1)N(Cc1ccccc1F)C(=O)c1ccco1 (centres undefined)
·,-10,CC(C)(C)C(=O)NCCc1nc2ccccc2[nH]1
0.5,·,CCOC(=O)c1cc(-c2ccccc2)n(CCNC(=O)OC(C)(C)C)c1C
·,5,COc1ccc(CNC(=O)C2CCC(Cn3c(=O)[nH]c4ccsc4c3=O)CC2)cc1 (centres undefined)
·,11,CCOC(=O)c1c(C)[nH]c(C)c1C(=O)CSC1=Nc2ccccc2C2CC=NN12 (centres undefined)
2.2,·,CCOC(=O)COc1cccc(NC(=O)c2ccccc2Cl)c1
-0.5,9,CCCOc1ccc(C(=O)Nc2ccc(NC(=O)c3cccs3)cc2)cc1
-2.9,4,CC1CCCCN1S(=O)(=O)c1ccc(NC(=O)CSc2nc3ccccc3o2)cc1 (centres undefined)
·,-1,Nc1ccc(Oc2cccc3cccnc23)c(Cl)c1

Only part of the results is shown. The share of hits here may be higher or lower than overall.
